UUG fidelity = modulators of yeast start codon fidelity, primary screen, whole organism, S. cerevisiae, single point, plate reader; S. cerevisiae UUG-firefly luciferase reporter, luminescence/redox ratio; activity score, % at 18.7 µM; actives 0.13% (n = 350,000); AID 602363, 2012;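 active means replicate mean at a twofold rise or more, about +100% in these data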;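 further: firefly luciferase made from a UUG start codon reports start codon fidelity; reporter light over untreated wells divided by growth signal over untreated wells; some hits fall short of that in this replicate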
* hit, by the source's call.

SMILES	UUG fidelity
C[C@@H]1CN([C@H](C)CO)C(=O)c2cc(NC(=O)CCCN(C)C)ccc2O[C@@H]1CN(C)C	0
CCC(=O)N1C[C@@H](C)[C@H](OC)CN(C)C(=O)c2cc(NS(C)(=O)=O)ccc2OC[C@H]1C	-1
O=C(C[C@@H]1CC[C@H]2[C@@H](COC[C@H](O)CN2S(=O)(=O)c2ccc(Cl)cc2)O1)NCCN1CCCC1	37
CC(C)NC(=O)N1C[C@H]2[C@@H](c3ccccc31)[C@@H](CO)N2C(=O)c1ccccc1	-5
COc1ccc(C#Cc2ccc3c(c2)[C@H]2[C@H](CCN2C(C)=O)[C@@H](CO)N3C)cc1	-6
CCCNC(=O)Nc1ccc2c(c1)OC[C@H](C)N(Cc1cncnc1)C[C@@H](C)[C@H](OC)CN(C)C2=O	7
C/C=C/c1ccc([C@H]2[C@@H](CO)N(C(C)=O)[C@H]2CN(C)C(=O)c2ccccn2)cc1	60
N#Cc1ccc(-c2ccc3c(c2)[C@@H]2[C@@H](CCN2Cc2ccc4c(c2)OCO4)[C@@H](CO)N3)cc1	-7
C[C@@H]1CN([C@@H](C)CO)C(=O)c2cccc(NS(=O)(=O)c3cccs3)c2O[C@H]1CN(C)Cc1ccc(Oc2ccccc2)cc1	-11
C[C@@H]1CN([C@H](C)CO)C(=O)Cc2cc(NC(=O)CCCN(C)C)ccc2O[C@H]1CN(C)C	4
C[C@H]1CN([C@@H](C)CO)C(=O)c2cc(NC(=O)CCN3CCOCC3)ccc2O[C@H]1CN(C)S(=O)(=O)c1ccccc1	6
C[C@H](O)C#Cc1ccc([C@H]2[C@@H](CO)N3CCCCN(CC4CCOCC4)C[C@H]23)cc1	16
O=C(C[C@H]1CC[C@H]2[C@@H](COC[C@@H](O)CN2Cc2cccc(C(F)(F)F)c2)O1)NCc1ccc(F)cc1	6
COc1ccc(S(=O)(=O)Nc2cccc3c2O[C@@H](CN(C)C(=O)Nc2ccc(F)cc2)[C@@H](C)CN([C@@H](C)CO)C3=O)cc1	4
CCCNC(=O)Nc1ccc2c(c1)C(=O)N(C)C[C@@H](OC)[C@H](C)CN(Cc1cccnc1)[C@@H](C)CO2	0
CCC(=O)N1[C@@H](CO)[C@@H]2c3ccccc3N(C(=O)c3cnccn3)C[C@@H]21	-8
O=C(c1ccncc1)N1CCCCN2[C@H](C1)[C@@H](c1ccc(C#Cc3ccccn3)cc1)[C@@H]2CO	5
CN(C)C(=O)[C@@H]1[C@@H](CO)[C@@H]2Cn3c(ccc(-c4ccncc4)c3=O)[C@H]1N2CC1CCCC1	-2
O=C(C[C@H]1CC[C@H]2[C@@H](COC[C@H](O)CN2C(=O)Nc2ccc(Cl)cc2)O1)N1CCCCC1	-2
O=C(Nc1ccc(F)cc1)N1C[C@H]2[C@@H](c3ccccc31)[C@H](CO)N2C(=O)Cc1ccccc1	13
CCCNC(=O)C[C@H]1CC[C@@H]2[C@H](COC[C@H](O)CN2Cc2cccc(F)c2)O1	-1
O=C(Nc1ccccc1F)N1CCCCN2[C@H](C1)[C@@H](c1ccc(C3=CCCC3)cc1)[C@@H]2CO	18
O=C(C[C@H]1CC[C@@H]2[C@H](COC[C@@H](O)CN2C(=O)c2ccccc2F)O1)N1CCN(c2ccccc2)CC1	12
C[C@@H]1CN([C@@H](C)CO)C(=O)c2cccc(NC(=O)c3ccc(-c4nccs4)cc3)c2O[C@@H]1CN(C)Cc1ccc(C(F)(F)F)cc1	-2
Cc1noc(C)c1NC(=O)N(C)C[C@H]1Oc2ccc(NC(=O)NC3CCCCC3)cc2C(=O)N([C@@H](C)CO)C[C@H]1C	-18

In the list so far, these have nitrogen in an aromatic ring:
SMILES	UUG fidelity
CCCNC(=O)Nc1ccc2c(c1)OC[C@H](C)N(Cc1cncnc1)C[C@@H](C)[C@H](OC)CN(C)C2=O	7
C/C=C/c1ccc([C@H]2[C@@H](CO)N(C(C)=O)[C@H]2CN(C)C(=O)c2ccccn2)cc1	60
CCCNC(=O)Nc1ccc2c(c1)C(=O)N(C)C[C@@H](OC)[C@H](C)CN(Cc1cccnc1)[C@@H](C)CO2	0
CCC(=O)N1[C@@H](CO)[C@@H]2c3ccccc3N(C(=O)c3cnccn3)C[C@@H]21	-8
O=C(c1ccncc1)N1CCCCN2[C@H](C1)[C@@H](c1ccc(C#Cc3ccccn3)cc1)[C@@H]2CO	5
CN(C)C(=O)[C@@H]1[C@@H](CO)[C@@H]2Cn3c(ccc(-c4ccncc4)c3=O)[C@H]1N2CC1CCCC1	-2
C[C@@H]1CN([C@@H](C)CO)C(=O)c2cccc(NC(=O)c3ccc(-c4nccs4)cc3)c2O[C@@H]1CN(C)Cc1ccc(C(F)(F)F)cc1	-2
Cc1noc(C)c1NC(=O)N(C)C[C@H]1Oc2ccc(NC(=O)NC3CCCCC3)cc2C(=O)N([C@@H](C)CO)C[C@H]1C	-18

More results follow:
SMILES	UUG fidelity
CO[C@H]1CN(C)C(=O)c2cc(NC(=O)C3CCC3)ccc2OC[C@@H](C)NC[C@@H]1C	-14
CCCN1C[C@H](C)[C@H](OC)CN(C)C(=O)c2ccc(NC(=O)Nc3ccccc3F)cc2OC[C@H]1C	-7
C[C@H](CO)N1C[C@H](C)[C@H](CN(C)Cc2ccccc2O)OCc2cn(nn2)CCCC1=O	0
CO[C@H]1CN(C)C(=O)c2cc(NS(C)(=O)=O)ccc2OC[C@H](C)N(C(=O)C2CCCC2)C[C@H]1C	-1
CCCNC(=O)C[C@H]1CC[C@H]2[C@@H](COC[C@@H](O)CN2Cc2cccc(F)c2)O1	-4
CC(=O)N1CCCCN2[C@@H](CO)[C@H](c3ccc(-c4cccc(C(=O)N(C)C)c4)cc3)[C@@H]2C1	34
C[C@@H]1CN([C@H](C)CO)C(=O)CCCn2cc(nn2)CO[C@@H]1CN(C)S(=O)(=O)c1ccc(-c2ccccc2)cc1	9
C[C@H]1CN([C@@H](C)CO)C(=O)c2cccc(NC(=O)C3CCOCC3)c2O[C@@H]1CN(C)Cc1ccc(-c2ccccc2)cc1	21
CO[C@@H]1CN(C)C(=O)c2cc(NC(C)=O)ccc2OC[C@H](C)N(C(=O)C2CCC2)C[C@@H]1C	-9
COc1ccccc1CN1[C@@H]2CN(C(=O)c3ccc(F)cc3)c3ccccc3[C@@H]2[C@@H]1CO	-7
CCC(=O)Nc1ccc2c(c1)OC[C@@H](C)N(C(=O)c1cccnc1)C[C@H](C)[C@H](OC)CN(C)C2=O	25
C[C@@H]1CN([C@H](C)CO)C(=O)Cc2cc(NC(=O)Cc3ccccc3)ccc2O[C@@H]1CN(C)S(=O)(=O)c1ccc(F)cc1	13
CO[C@H]1CN(C)C(=O)c2cc(NC(=O)C3CC3)ccc2OC[C@@H](C)N(Cc2cccnc2)C[C@@H]1C	-13
CN1C[C@@H]2[C@H](c3ccccc31)[C@@H](CO)N2C(=O)c1ccccn1	5
OC[C@@H]1[C@@H](c2ccc(C#Cc3ccccc3F)cc2)[C@H]2CN(Cc3cncnc3)CCCCN12	-3
O=C(CN1CCOCC1)N1CCCCN2[C@H](C1)[C@H](c1ccc(-c3ccccc3F)cc1)[C@@H]2CO	-16
COc1ccc(NC(=O)N2C[C@H](O)COC[C@H]3O[C@@H](CC(=O)NC4Cc5ccccc5C4)CC[C@@H]32)cc1	6
COc1ccc(S(=O)(=O)Nc2cccc3c2O[C@H](CN(C)C)[C@H](C)CN([C@@H](C)CO)C3=O)cc1	3
COc1ccc(S(=O)(=O)N(C)C[C@H]2Oc3c(NC(=O)c4cc(C)nn4C)cccc3C(=O)N([C@@H](C)CO)C[C@@H]2C)cc1	-2
CO[C@@H]1CN(C)C(=O)c2cc(NC(=O)CC(F)(F)F)ccc2OC[C@@H](C)N(S(=O)(=O)c2cn(C)cn2)C[C@H]1C	10
Cc1ccccc1S(=O)(=O)N1C[C@@H](O)COC[C@H]2O[C@@H](CC(=O)N3CCOCC3)CC[C@@H]21	-8
COC(=O)C[C@H]1CC[C@H]2[C@@H](COC[C@H](O)CN2S(=O)(=O)c2ccccc2C)O1	2
CCCNC(=O)N1[C@H](CO)[C@@H]2c3ccccc3N(C(=O)c3ccc(F)cc3)C[C@@H]21	41
CCC(=O)N1C[C@H]2[C@@H](c3ccccc31)[C@H](CO)N2Cc1ccccc1Cl	-1
CCC(=O)N1CCCCN2[C@H](CO)[C@@H](c3ccc(-c4ccc(F)cc4)cc3)[C@@H]2C1	-13

Grouped by structure: those above containing a CF3 group
SMILES	UUG fidelity
O=C(C[C@H]1CC[C@H]2[C@@H](COC[C@@H](O)CN2Cc2cccc(C(F)(F)F)c2)O1)NCc1ccc(F)cc1	6
C[C@@H]1CN([C@@H](C)CO)C(=O)c2cccc(NC(=O)c3ccc(-c4nccs4)cc3)c2O[C@@H]1CN(C)Cc1ccc(C(F)(F)F)cc1	-2
CO[C@@H]1CN(C)C(=O)c2cc(NC(=O)CC(F)(F)F)ccc2OC[C@@H](C)N(S(=O)(=O)c2cn(C)cn2)C[C@H]1C	10

(next part)
SMILES	UUG fidelity
COc1ccc(NC(=O)N2CC[C@@H]3[C@H]2c2cc(-c4cccc(C(=O)N(C)C)c4)ccc2N(C)[C@H]3CO)cc1	17
COc1ccc(S(=O)(=O)N2CCCCN3[C@H](C2)[C@H](c2ccc(C#CC4CC4)cc2)[C@@H]3CO)cc1	18
C[C@H]1CN([C@@H](C)CO)C(=O)c2cccc(NC(=O)c3cnccn3)c2O[C@H]1CN(C)S(C)(=O)=O	5
C/C=C/c1ccc2c(c1)[C@H]1[C@H](CCN1S(=O)(=O)c1ccccc1)[C@H](CO)N2	-14
COCC(=O)Nc1ccc2c(c1)C(=O)N(C)C[C@@H](OC)[C@@H](C)CN(C(=O)c1cnccn1)[C@H](C)CO2	-2
O=C(Cc1ccccc1)N1C[C@@H]2[C@H](c3ccccc31)[C@H](CO)N2C(=O)c1cccc(F)c1	5
COc1ccc(NC(=O)Nc2ccc3c(c2)C(=O)N([C@@H](C)CO)C[C@H](C)[C@@H](CN(C)S(C)(=O)=O)O3)cc1	7
COc1ccc(NC(=O)N(C)C[C@H]2Oc3c(NC(=O)Nc4c(C)noc4C)cccc3C(=O)N([C@H](C)CO)C[C@H]2C)cc1	-14
O=C(C[C@@H]1CC[C@H]2[C@@H](COC[C@H](O)CN2Cc2ccc(Oc3ccccc3)cc2)O1)N1CCCCC1	8
C[C@@H]1CN([C@H](C)CO)C(=O)Cc2cc(NC(=O)Nc3cccc4ccccc34)ccc2O[C@H]1CN(C)Cc1ccc(C(=O)O)cc1	-5
CO[C@H]1CN(C)C(=O)c2cc(NC(=O)C3CC3)ccc2OC[C@@H](C)N(Cc2nccs2)C[C@@H]1C	-6
CO[C@H]1CN(C)C(=O)c2cc(NC(=O)C3CC3)ccc2OC[C@@H](C)N(CC2CCCC2)C[C@H]1C	-10
CCCNC(=O)[C@@H]1[C@@H](CO)[C@@H]2Cn3c(ccc(C4=CCCC4)c3=O)[C@H]1N2	15
CC1C=NC(S(=O)(=O)N2CC[C@@H]3[C@H](CO)N(C)c4ccc(C#Cc5cccnc5)cc4[C@@H]32)=N1 (stereo partly drawn)	2
COc1ccc(NC(=O)N(C)C[C@@H]2Oc3ccc(NC(=O)Nc4ccccc4)cc3C(=O)N([C@H](C)CO)C[C@@H]2C)cc1	3
C[C@H]1CN([C@@H](C)CO)C(=O)c2cc(NS(=O)(=O)c3cn(C)cn3)ccc2O[C@@H]1CN(C)C(=O)Nc1cccc2ccccc12	4
COc1cccc(CN2C[C@@H](C)[C@H](OC)CN(C)C(=O)c3cc(NS(=O)(=O)c4cn(C)cn4)ccc3OC[C@H]2C)c1	0
CO[C@H]1CN(C)C(=O)c2ccc(NC(C)=O)cc2OC[C@@H](C)N(C(=O)c2ccncc2)C[C@H]1C	9
COc1cccc(-c2ccc([C@H]3[C@@H](CO)N4CCCCN(S(=O)(=O)c5cccs5)C[C@H]34)cc2)c1	-5
CO[C@H]1CN(C)C(=O)c2cc(NC(=O)c3ccc(F)cc3)ccc2OC[C@@H](C)N(C(C)=O)C[C@@H]1C	-2
C[C@H]1CN([C@@H](C)CO)C(=O)c2cccc(NC(=O)Nc3ccc4c(c3)OCO4)c2O[C@H]1CN(C)Cc1ccc(C(=O)Nc2ccccc2N)cc1	-5
COc1cccc(-c2ccc([C@H]3[C@@H](CO)N4CCCCN(CC5CC5)C[C@@H]34)cc2)c1	10
C[C@H](CO)N1C[C@H](C)[C@@H](CN(C)S(=O)(=O)c2ccc(Cl)cc2)Oc2c(NC(=O)NC3CCCCC3)cccc2C1=O	1
CN(C[C@H]1[C@H](c2ccccc2)[C@@H](CO)N1CC1CC1)C(=O)c1cccc(F)c1	13
CC(=O)NC[C@@H]1[C@@H](c2ccc(-c3cccnc3)cc2)[C@@H](CO)N1C(=O)C1CCC1	-15
Next compounds.
SMILES	UUG fidelity
C[C@H]1CN([C@@H](C)CO)C(=O)c2cccc(NS(C)(=O)=O)c2O[C@H]1CN(C)Cc1ccc(C(=O)O)cc1	-7
CC(=O)N1CCCCN2[C@H](CO)[C@H](c3ccc(C#Cc4ccccc4F)cc3)[C@@H]2C1	18
COCC(=O)N1CCCCN2[C@H](CO)[C@H](c3ccc(-c4ccc(OC)cc4)cc3)[C@H]2C1	0
CCCC#Cc1ccc([C@H]2[C@H](CO)N3CCCCN(S(C)(=O)=O)C[C@@H]23)cc1	14
C[C@@H](O)C#Cc1ccc([C@@H]2[C@@H](CO)N3CCCCN(CC4CCOCC4)C[C@@H]23)cc1	13
Cc1noc(C)c1NC(=O)Nc1ccc2c(c1)C(=O)N([C@@H](C)CO)C[C@H](C)[C@H](CN(C)C)O2	9
CC(C)NC(=O)N1[C@H](CO)[C@@H]2c3ccccc3N(C(=O)c3ccncc3)C[C@@H]21	10
C[C@@H]1CN([C@@H](C)CO)C(=O)c2cccc(NC(=O)Nc3ccc(C(F)(F)F)cc3)c2O[C@H]1CN(C)Cc1ccc2c(c1)OCO2	8
C[C@@H]1CN([C@H](C)CO)C(=O)c2cccc(NS(=O)(=O)c3ccccc3)c2O[C@H]1CN(C)Cc1ccccc1	10
C[C@@H]1CN([C@@H](C)CO)C(=O)c2cc(NS(=O)(=O)c3cccs3)ccc2O[C@@H]1CN(C)Cc1ccncc1	-3

Screening results (PubChem BioAssay)

Some of the compounds tested. The share of hits here may be higher or lower than overall.
